Bioassay records: PubChem BioAssay, Fisher Drug Discovery Resource Center
NPYLR7 agonist – mosquito NPYLR7 agonism. activation, % at 10 µM. actives 0.15% (n = 270,000). HEK293T NPYLR7/Galpha15, GCaMP6s calcium fluorescence; in the data active means activation above about 40%;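 further: 0% = vehicle and 100% = reference agonist at the receptor; some compounds past the cut are filed as inactive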
NPYLR7 agonist max-min – recorded beside NPYLR7 agonist, whose call it bears; activation, %; measured here: Max-Min RFU normalised activation; some inactives read as strong as hits;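 span of the calcium signal over five minutes; 0% = vehicle and 100% = native peptide agonist; compound fluorescence can raise it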
The depositor's hits bear a star.

O=C(NCC(O)c1ccco1)C1(c2ccccc2)CCC1 (configuration not stated) was read as NPYLR7 agonist 4 and NPYLR7 agonist max-min 2.
Cc1cc(CN(C)C(=O)Nc2n[nH]c(Cc3ccccc3)n2)ccn1 was read as NPYLR7 agonist 11 and NPYLR7 agonist max-min 0.
`O=C(c1ccccc1)N1CCc2nc(-c3ccc(F)cc3)nc(N3CCOCC3)c2C1` gave NPYLR7 agonist 11 and NPYLR7 agonist max-min 11.
For CCc1nnc(CS(=O)(=O)Cc2c(Cl)cccc2Cl)o1 the results were NPYLR7 agonist -4 and NPYLR7 agonist max-min -5.
For O=[N+]([O-])c1cc(C(F)(F)F)ccc1NN=C1CCCC1 the results were NPYLR7 agonist 0 and NPYLR7 agonist max-min -4.
For Cc1ccc(S(=O)(=O)N2CCN(c3nccn3C)CC2)cc1C(F)(F)F the results were NPYLR7 agonist 14 and NPYLR7 agonist max-min 10.
`COCCN(CCC(=O)NCc1cccc(C(F)(F)F)c1)c1nc(-c2ccccc2)nc2ccccc12` gave NPYLR7 agonist 13 and NPYLR7 agonist max-min 12.
COc1ccc(S(=O)(=O)NC(=O)C2(C)CCN2C(=O)c2cccc(F)c2)cc1 (configuration not stated) was read as NPYLR7 agonist 1 and NPYLR7 agonist max-min -1.
CC(=O)c1ccccc1/C=C\c1ccccc1 was read as NPYLR7 agonist 10 and NPYLR7 agonist max-min 11.
Screening Cc1cccc(COc2ccc(C(C)N)cc2)c1 (configuration not stated) returned NPYLR7 agonist 0 and NPYLR7 agonist max-min -4.
Screening COc1cccc(-n2cc(CN(C)Cc3nc(-c4cccs4)no3)cn2)c1 returned NPYLR7 agonist -5 and NPYLR7 agonist max-min -9.
CCc1[nH]nc(NC(=O)c2ncncc2Cl)c1Br was read as NPYLR7 agonist -3 and NPYLR7 agonist max-min -8.
Screening COC(=O)c1ccc(NC(=O)CCC(=O)c2ccc(C)c(C)c2)cc1 returned NPYLR7 agonist 1 and NPYLR7 agonist max-min 3.
Screening CCOc1c(C)cnc2c1c(=O)n(CC(=O)N1CCc3ccccc31)c(=O)n2C returned NPYLR7 agonist 2 and NPYLR7 agonist max-min 2.
`Cc1csc(=O)n1CC(=O)NC(C)C12CC3CC(CC(C3)C1)C2` (configuration not stated) gave NPYLR7 agonist 1 and NPYLR7 agonist max-min 6.
`Cc1cccn2c(CNCC(C)(C)N3CCOCC3)c(C(=O)N3CCCCC3)nc12` gave NPYLR7 agonist 3 and NPYLR7 agonist max-min 11.
Screening COCCn1c(SCC(=O)Nc2ccc(C)cc2)nc2c([nH]c3ccccc32)c1=O returned NPYLR7 agonist -1 and NPYLR7 agonist max-min -2.
Screening CC1CCCN(c2nc(N)c([N+](=O)[O-])c(NCCO)n2)C1 (configuration not stated) returned NPYLR7 agonist -1 and NPYLR7 agonist max-min -3.
For O=C1CN(C(=S)Nc2ccc(OC(F)F)cc2)CC2c3cccc(F)c3CCN12 (configuration not stated) the results were NPYLR7 agonist 2 and NPYLR7 agonist max-min 5.
`CCOC(=O)CCCN1CCCc2c1cccc2S(N)(=O)=O` gave NPYLR7 agonist -2 and NPYLR7 agonist max-min -2.
`CC(C)c1nccn1Cc1cc(C(=O)N(C)CCC2(O)CCCC2)n[nH]1` gave NPYLR7 agonist 9 and NPYLR7 agonist max-min 9.
For COCc1c(Br)c(C)nc(OCC(=O)N/N=C\Cc2cc(Br)cc(OC)c2O)c1C#N the results were NPYLR7 agonist 7 and NPYLR7 agonist max-min 11.
Screening OC(COCCC1CC2CCC1C2)CN1CCN(c2ccccc2F)CC1 (configuration not stated) returned NPYLR7 agonist -6 and NPYLR7 agonist max-min -8.
Screening COC(=O)c1c(C)[nH]c(C(=O)Nc2cc(OC)c(OC)cc2C)c1C returned NPYLR7 agonist 5 and NPYLR7 agonist max-min 1.
CC(=O)NC(CC(C)C)C(=O)N1CCN(Cc2ccc(-c3noc(-c4cccnc4)n3)cc2)CC1 (configuration not stated) was read as NPYLR7 agonist 24 and NPYLR7 agonist max-min 18.
`Cc1ccccc1NC1CCN(S(=O)(=O)c2ccc(F)c(C(F)(F)F)c2)CC1` gave NPYLR7 agonist 2 and NPYLR7 agonist max-min -1.
Screening COc1cc2c(cc1OC)C(c1c(F)cccc1Cl)N(C(=O)/C=C/c1ccccc1)CC2 (configuration not stated) returned NPYLR7 agonist 14 and NPYLR7 agonist max-min 10.
Screening O=C(NC1CCN(c2ccccc2C(=O)N2CCCC2)CC1)c1ccccc1F returned NPYLR7 agonist -10 and NPYLR7 agonist max-min -2.
Screening Cc1ccsc1CN(C)Cc1nc[nH]c1C returned NPYLR7 agonist 8 and NPYLR7 agonist max-min 6.
`Cc1nnc(NC(=O)CSc2nnc(CNC(=O)c3ccco3)n2-c2cccc(C(F)(F)F)c2)s1` gave NPYLR7 agonist -14 and NPYLR7 agonist max-min -9.
`COc1nc2cn(C3CCCC3)c(O)c2cc1CNC(=O)CN1CCCC1` gave NPYLR7 agonist -4 and NPYLR7 agonist max-min -4.
CCCCCCN=C(NC(=O)c1ccc(C)cc1)OCCC was read as NPYLR7 agonist 2 and NPYLR7 agonist max-min 14.
`Cc1cc(O)c(C(c2ccccc2)N2CCN(c3ccccc3F)CC2)c(=O)n1Cc1cccnc1` (configuration not stated) gave NPYLR7 agonist 0 and NPYLR7 agonist max-min -3.
`C[C@@H](NC(=O)C1CCCCC1C(=O)N1CCc2c([nH]c3ccccc23)C1)C(C)(C)C` (some centres not stated) gave NPYLR7 agonist -4 and NPYLR7 agonist max-min -5.
COc1ccc(Cn2cc(C(=O)N3CCC(O)(c4ccccc4C)C3)nn2)cc1 (configuration not stated) was read as NPYLR7 agonist 0 and NPYLR7 agonist max-min -1.
Screening COc1ccc(OC)c(-c2nc3cc(C)cc(C)n3c2NC(C)(C)C)c1 returned NPYLR7 agonist -5 and NPYLR7 agonist max-min -1.
`Cc1ccc(-c2nc(C)c(C(=O)N3CCC(C(N)=O)CC3)s2)c(C)c1` gave NPYLR7 agonist 4 and NPYLR7 agonist max-min 5.
`CN(C)c1cccc(-c2cc(C3(CNc4cccc(F)c4)CC3)ccn2)c1` gave NPYLR7 agonist 7 and NPYLR7 agonist max-min 10.
Screening O=S(=O)(Cc1ccccc1CN1CC[C@H](CO)[C@H](O)C1)c1ccccc1 returned NPYLR7 agonist -3 and NPYLR7 agonist max-min -7.
CC1CCN(c2ccc(NC(=O)C(C)Cl)cc2C(=O)NCCc2ccccc2)CC1 (configuration not stated) was read as NPYLR7 agonist -1 and NPYLR7 agonist max-min 9.
`C=C(C)Cn1c(SCC(=O)N/N=C\c2ccccc2OCC)nnc1-c1ccc(Br)cc1` gave NPYLR7 agonist -6 and NPYLR7 agonist max-min -10.
For N#CCOc1ccc(NC(=O)c2cccc(Cl)c2Cl)cc1 the results were NPYLR7 agonist -5 and NPYLR7 agonist max-min -3.
CCC#CCN1CCN(c2cc(Nc3ccccc3)nc(N)n2)CC1 was read as NPYLR7 agonist -2 and NPYLR7 agonist max-min 4.
For O=C(CCSc1ccccc1)N1CCN(c2ccc3nnc(-c4ccco4)n3n2)CC1 the results were NPYLR7 agonist 1 and NPYLR7 agonist max-min -2.
Screening O=C(Nc1ccc(-c2onc3c2CCc2ccccc2-3)cc1)c1csc(-c2ccc3c(c2)CCO3)n1 returned NPYLR7 agonist 4 and NPYLR7 agonist max-min 4.

Some of these compounds in order of heavy-atom count, ascending:
Screening Cc1cccc(COc2ccc(C(C)N)cc2)c1 (configuration not stated) returned NPYLR7 agonist 0 and NPYLR7 agonist max-min -4.
For N#CCOc1ccc(NC(=O)c2cccc(Cl)c2Cl)cc1 the results were NPYLR7 agonist -5 and NPYLR7 agonist max-min -3.
Screening COC(=O)c1c(C)[nH]c(C(=O)Nc2cc(OC)c(OC)cc2C)c1C returned NPYLR7 agonist 5 and NPYLR7 agonist max-min 1.
Screening COc1cccc(-n2cc(CN(C)Cc3nc(-c4cccs4)no3)cn2)c1 returned NPYLR7 agonist -5 and NPYLR7 agonist max-min -9.
COc1ccc(Cn2cc(C(=O)N3CCC(O)(c4ccccc4C)C3)nn2)cc1 (configuration not stated) was read as NPYLR7 agonist 0 and NPYLR7 agonist max-min -1.
`C=C(C)Cn1c(SCC(=O)N/N=C\c2ccccc2OCC)nnc1-c1ccc(Br)cc1` gave NPYLR7 agonist -6 and NPYLR7 agonist max-min -10.
CC(=O)NC(CC(C)C)C(=O)N1CCN(Cc2ccc(-c3noc(-c4cccnc4)n3)cc2)CC1 (configuration not stated) was read as NPYLR7 agonist 24 and NPYLR7 agonist max-min 18.
`Cc1cc(O)c(C(c2ccccc2)N2CCN(c3ccccc3F)CC2)c(=O)n1Cc1cccnc1` (configuration not stated) gave NPYLR7 agonist 0 and NPYLR7 agonist max-min -3.
`COCCN(CCC(=O)NCc1cccc(C(F)(F)F)c1)c1nc(-c2ccccc2)nc2ccccc12` gave NPYLR7 agonist 13 and NPYLR7 agonist max-min 12.

(more compounds)
For O=S(=O)(c1cc(Cl)ccc1Cl)N1CCN(Cc2cccc3ccccc23)CC1 the results were NPYLR7 agonist 5 and NPYLR7 agonist max-min 9.
O=C(NCCc1ccccn1)c1csc(CSc2nnc(-c3ccncc3)n2-c2cccc(C(F)(F)F)c2)n1 was read as NPYLR7 agonist 24 and NPYLR7 agonist max-min 24.
Cc1nccn1CCC1CCN(C(=O)C2CC3(CCNCC3)CN2)CC1 (configuration not stated) was read as NPYLR7 agonist 22 and NPYLR7 agonist max-min 10.
For COc1cc(OC)cc(C(=O)N2CCN(C(=O)CN3CCc4sccc4C3c3ccccc3)CC2)c1 (configuration not stated) the results were NPYLR7 agonist 3 and NPYLR7 agonist max-min -1.
`Cc1cc(C)n2c(n1)nc1ccccc12` gave NPYLR7 agonist 6 and NPYLR7 agonist max-min 3.
Cc1ccc(N2CCCC(N(C)C3CC(C)OC3=O)C2)nn1 (configuration not stated) was read as NPYLR7 agonist 6 and NPYLR7 agonist max-min 9.
COc1ccc(NC(=O)NC2C3COCC2CN(CCOC(C)C)C3)cc1 (configuration not stated) was read as NPYLR7 agonist 28 and NPYLR7 agonist max-min 20.
For O=C1CSC(=NC(=O)NCC2CCCC(CNC(=O)N=C3NC(=O)CS3)C2)N1 (configuration not stated) the results were NPYLR7 agonist 7 and NPYLR7 agonist max-min 7.
`O=C(c1cn(C2CCCCC2)nn1)N1CCCC(OCc2ccccc2)C1` (configuration not stated) gave NPYLR7 agonist 15 and NPYLR7 agonist max-min 8.
CCCCn1c(=O)[nH]c(=O)c2c1nc(CSc1nnnn1C1CC1)n2CC was read as NPYLR7 agonist 2 and NPYLR7 agonist max-min 10.
O=C(CCC1CCN(C(=O)C2CC23CCC3)CC1)NCc1cccc(C(F)(F)F)c1 (configuration not stated) was read as NPYLR7 agonist 21 and NPYLR7 agonist max-min 20.
Screening CSc1cccc(NS(=O)(=O)c2c(F)cc(F)c(Cl)c2F)c1 returned NPYLR7 agonist 1 and NPYLR7 agonist max-min 33.
`CCOC(=O)CCCC(=O)N1CCN(c2ncccc2C(=O)NCc2cccs2)CC1` gave NPYLR7 agonist 29 and NPYLR7 agonist max-min 16.
Screening COc1cc(F)c(C(=O)N2CCOC(COCc3c(Cl)cccc3Cl)C2)c(F)c1 (configuration not stated) returned NPYLR7 agonist 23 and NPYLR7 agonist max-min 33.
Screening C#CCn1c(=NC(=O)c2ccn(C)n2)sc2cc(Cl)ccc21 returned NPYLR7 agonist 0 and NPYLR7 agonist max-min 4.
COc1ccccc1C(C)NC(=O)COC(=O)c1ccc2c(c1)CCO2 (configuration not stated) was read as NPYLR7 agonist 16 and NPYLR7 agonist max-min 11.
For CCS(=O)(=O)CC(C)N(C)C(=O)/C=C(/C)c1cccc(Cl)c1 (configuration not stated) the results were NPYLR7 agonist 0 and NPYLR7 agonist max-min -1.
Screening COC(=O)C(c1ccc(OC)cc1)C1C=CC(NC(=O)c2cccnc2Cl)C1 (configuration not stated) returned NPYLR7 agonist 5 and NPYLR7 agonist max-min 3.
`CC(=O)N1CCCC(C(=O)N2CC=C(c3cccc4ccccc34)CC2)C1` (configuration not stated) gave NPYLR7 agonist 3 and NPYLR7 agonist max-min 5.
For O=C1c2cccc3c(N4CCOCC4)ccc(c23)C(=O)N1c1cccc(O)c1 the results were NPYLR7 agonist 34 and NPYLR7 agonist max-min 13.
For CC1CCc2c(sc(N)c2-c2nc3ccccc3s2)C1 (configuration not stated) the results were NPYLR7 agonist 3 and NPYLR7 agonist max-min 0.
`Cc1ccc(-c2cc3c(=O)n(CC(=O)Nc4ccc(Oc5ccccc5)cc4)ccn3n2)cc1` gave NPYLR7 agonist 5 and NPYLR7 agonist max-min 3.
`CCOC(=O)Nc1nnc(Sc2nccnc2C#N)s1` gave NPYLR7 agonist -3 and NPYLR7 agonist max-min -5.
Screening COc1ccc(CCN(C)C(=O)c2csc(CSc3nnc(-c4cccnc4)n3-c3ccccc3F)n2)cc1OC returned NPYLR7 agonist 12 and NPYLR7 agonist max-min 24.
`COc1ccc(CN(C(=O)Cn2nc(C)c(C)c(C#N)c2=O)C2CC2)cc1` gave NPYLR7 agonist 7 and NPYLR7 agonist max-min 4.
For CC(C)CC(C)N(C)C(=O)c1nn(-c2ccccc2)c2c1CCC2 (configuration not stated) the results were NPYLR7 agonist 2 and NPYLR7 agonist max-min 4.
O=C(CCC1CCCN(Cc2cccnc2)C1)Nc1ccccc1F (configuration not stated) was read as NPYLR7 agonist 10 and NPYLR7 agonist max-min 6.
`Cc1noc(C)c1CNC(=O)C1CCCN(Cc2ccco2)C1` (configuration not stated) gave NPYLR7 agonist -2 and NPYLR7 agonist max-min 15.
Cn1c(=O)c2c(nc3n2CC(c2ccccc2)=NN3Cc2cccc3ccccc23)n(C)c1=O was read as NPYLR7 agonist 3 and NPYLR7 agonist max-min 6.
Nc1cc(-c2cccc(Cl)c2)nn1-c1ccc(C(=O)NCCNc2cccc3ccccc23)cc1 was read as NPYLR7 agonist 1 and NPYLR7 agonist max-min -4.
`Cc1cccc(C(C(=O)NCCc2sccc2C)N(C)C)c1` (configuration not stated) gave NPYLR7 agonist 2 and NPYLR7 agonist max-min 0.
CCCC(CCC)C(=O)NCCn1ncc2c(=O)n(Cc3ccc([N+](=O)[O-])cc3)cnc21 was read as NPYLR7 agonist 3 and NPYLR7 agonist max-min -2.

Some of the compounds tested; rates above refer to the full screens.
